Assay outcomes as filed in PubChem.
Vif TR-FRET: inhibitors of Vif binding to APOBEC3G peptide, primary screen, biochemical, TR-FRET, GST-Vif 1-94, biotin-A3G peptide, dose response retest (AID 1117319) | Virion infectivity factor (Human immunodeficiency virus type 1 group M subtype B (isolate … | TR-FRET GST-Vif / biotin-A3G peptide binding; higher % means a stronger effect; test concentration not given here; strong numbers were not always called active | inhibition, %, or IC50 in µM where a hit was titrated | 260,000 tested, 0.57% active;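 active = above the screen mean plus three standard deviations and confirmed in dose response; inconclusive = results disagree or hit not tested in dose response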;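 also: Vif residues 1-94 fused to GST binding biotinylated APOBEC3G peptide 110-148; 0% = full assay without inhibitor and 100% = GST in place of GST-Vif; retest series ran down from 100 µM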
Beta apoptosis: inhibitors of cytokine-induced beta cell apoptosis, primary screen, luminescence; INS-1E cytokine-induced death, ATP luminescence, 48 h; percent of positive-control rescue, neutral wells zero; protection from apoptosis, % (concentration not given with the values); 300,000 tested, 0.8% active;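 active = all replicates at 75% or more, or half of them and the mean; inconclusive = half reach 75% but not the mean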;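 also: 0% = cytokine-treated negative control wells and 100% = positive control rescue; higher means more ATP so stronger rescue from cytokine killing; wells of about 40 µL received 100 nL stock; the first replicate is given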
RanGTP-Impb inh: inhibitors of RanGTP-importin-beta interaction, primary screen, biochemical, FRET, CFP-Ran, YFP-importin-beta, homogeneous | cell-free CFP-Ran/YFP-importin-beta FRET ratio | inhibition, % (test concentration not listed) | 300,000 tested, 1.1% active | AID 2216, 2009;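 active = most replicates above 15%; inconclusive = exactly half above 15%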;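 also: 0% = DMSO wells and 100% = Ran loaded with GDP instead of GTP; wells of about 40 µL received 100 nL stock; the first replicate is given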
T cruzi repl: inhibitors of intracellular T. cruzi growth, primary screen, luminescence, NIH3T3 host cells | T. cruzi beta-gal in NIH3T3, 90 h | inhibition, % (concentration not given with the values) | 300,000 tested, 1.4% active | AID 1885, 2009;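 active = mean inhibition across valid replicates above about 55%, limit read from the data; inconclusive = mean below that limit but half or more replicates reach it; inactive = mean below it, under half of replicates reach it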;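 also: signal also drops with host cell toxicity which is not excluded here; 0% = plate median of DMSO wells and 100% = zero luminescence signal; higher percent means less beta-gal luminescence so fewer parasites; stock transfer was 50 nL into about 50 µL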
MLL AF4-AF9 inh: inhibitors of AF4 peptide binding to AF9, primary screen, biochemical, AlphaScreen, biotin-AF4 peptide, FLAG-AF9, single point; Protein AF-9 (Homo sapiens), P42568; inhibition, % at 10 µM; 350,000 tested, 0.47% active;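 active = every replicate reaching a set inhibition limit, whatever the replicate mean, cut at about 25% in these data; inconclusive = mean inhibition reaches that limit but some replicates miss it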;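 also: 0% = plate neutral control median and 100% = total signal loss; the record names both 10 and 1 µM as test concentration; the first replicate is given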
LANA-H2B inh: blockers of LANA interaction with H2A/H2B – biochemical, FP readout, HTS, primary screen. cell-free LANA-H2A/H2B peptide, fluorescence polarization. Protein LANA1 (Human herpesvirus 8 type P (isolate GK18)), Q9QR71. inhibition, % (test concentration not listed). 320,000 tested, 0.6% active; in the data active = inhibition mostly above about 10%, no sharp cut-off; inactive = mostly below about 6.7%;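 also: stock transfer was 7.5 nL into about 10 µL; 0% = median of vehicle wells and 100% = median of positive control wells; one replicate is shown; the record names a cut of 25% in any replicate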
Target sequence (Q9QR71 whole entry, looked up): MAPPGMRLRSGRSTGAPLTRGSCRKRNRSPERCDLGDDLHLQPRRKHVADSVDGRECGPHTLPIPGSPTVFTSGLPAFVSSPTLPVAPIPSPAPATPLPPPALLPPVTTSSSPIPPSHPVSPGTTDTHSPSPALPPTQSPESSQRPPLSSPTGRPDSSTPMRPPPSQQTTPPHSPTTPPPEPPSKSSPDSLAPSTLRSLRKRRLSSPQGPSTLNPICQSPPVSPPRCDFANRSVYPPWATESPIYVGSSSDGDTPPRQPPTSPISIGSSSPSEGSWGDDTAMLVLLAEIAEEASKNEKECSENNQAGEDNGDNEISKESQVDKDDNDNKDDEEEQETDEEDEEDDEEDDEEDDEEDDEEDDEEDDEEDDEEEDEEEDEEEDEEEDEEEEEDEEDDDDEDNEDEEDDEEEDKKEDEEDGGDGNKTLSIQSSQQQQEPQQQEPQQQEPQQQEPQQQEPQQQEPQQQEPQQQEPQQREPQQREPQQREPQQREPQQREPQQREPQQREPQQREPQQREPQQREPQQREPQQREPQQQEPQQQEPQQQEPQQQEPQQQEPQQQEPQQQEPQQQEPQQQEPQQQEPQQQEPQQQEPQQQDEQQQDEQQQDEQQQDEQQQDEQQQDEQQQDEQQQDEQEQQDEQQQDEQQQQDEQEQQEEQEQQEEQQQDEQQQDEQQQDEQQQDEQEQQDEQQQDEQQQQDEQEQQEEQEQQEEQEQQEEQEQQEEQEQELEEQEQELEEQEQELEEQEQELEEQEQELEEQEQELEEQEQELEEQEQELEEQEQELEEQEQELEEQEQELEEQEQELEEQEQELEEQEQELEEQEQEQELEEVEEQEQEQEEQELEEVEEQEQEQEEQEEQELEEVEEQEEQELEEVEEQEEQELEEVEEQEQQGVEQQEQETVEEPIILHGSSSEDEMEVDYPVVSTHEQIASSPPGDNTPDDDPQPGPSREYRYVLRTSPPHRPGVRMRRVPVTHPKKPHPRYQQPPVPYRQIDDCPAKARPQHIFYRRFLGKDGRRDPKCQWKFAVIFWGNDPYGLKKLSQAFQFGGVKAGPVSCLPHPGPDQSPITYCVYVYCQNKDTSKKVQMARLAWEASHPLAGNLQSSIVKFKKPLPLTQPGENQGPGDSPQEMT
A1 inh: caspase 3/7 activation in MEF A1-2A-BIM cells, primary screen, A1 inhibitor project, cell-based, luminescence, HTS; AID 2462, 2010; 330,000 tested, 0.066% active; Caspase-Glo 3/7 luminescence, 3 h; percent of clofoctol response, vehicle zero; caspase activation, % (concentration not given with the values);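 active = over half of replicate activation scores above 10%, or exactly half above 10 with the replicate mean above 10; inconclusive = replicate mean below 10 yet half the replicates above 10; inactive = over half of replicates below 10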;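 also: wells of about 30 µL received 50 nL stock; many hits fall short of the cut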
Calb FLC: C. albicans growth inhibition with fluconazole, primary screen, CaCi-2 strain, Alamar Blue fluorescence. C. albicans CaCi-2 (fluconazole-resistant clinical isolate) + fluconazole, 48 h. growth inhibition, % (test concentration not listed). 300,000 tested, 0.57% active;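 active = most replicates above 75%; inconclusive = exactly half above 75%; inactive = most below 75%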;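 also: all wells also contain fluconazole at 8 µg/ml as a sub-toxic cotreatment; 0% = median of DMSO wells and 100% = median of geldanamycin control wells; wells of about 8 µL received 7.5 nL stock; the first replicate is given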
Active calls of the source: *; i = inactive; ? = inconclusive; · = no result given. Outcome played no part in choosing rows; overall some 4.3% were active at least once.

The line under a structure holds: Vif TR-FRET | Beta apoptosis | RanGTP-Impb inh | T cruzi repl | MLL AF4-AF9 inh | LANA-H2B inh | A1 inh | Calb FLC
- O=C(CSc1nc2ccccc2s1)N1c2ccccc2Sc2ccc(Cl)cc21
 : 23% | 5 | 1.9 | 40 | · | -0.3 | 1.4 | 7
- CCCCOCCCNC(=O)N[C@@H](CCSC)C(=O)OC
 : -5% | -5 | 2.5 | -4 | · | -4.0 | 0.2 | -1
- CSc1nccc(Oc2ccc(C#N)cc2)n1
 : · | -5 | -3.5 | -6 | -4.7 | 2.6 | 0.1 | 9
- O=C(CN1CCN(Cc2ccccc2)CC1)Nc1ccc(N2CCOCC2)cc1
 : -10% | · | ? | -17 | 4.4 | 3.5 | -1.3 | 49
- COC(=O)Cc1nnc(NC(=O)c2ccccc2)s1
 : 1% | 0 | -1.6 | -3 | · | 4.8 | -0.2 | -1
- C=CCOc1ccc(CNCCc2ccc(S(N)(=O)=O)cc2)cc1
 : 15% | 2 | 2.6 | 43 | 3.7 | 5.9 | 0.6 | -13
- Cc1ccccc1-c1nnc(NC(=O)CSc2nc3ccccc3s2)s1
 : -1% | 0 | 1.7 | -3 | 1.2 | 12 | 0.9 | 15
- Cc1ccccc1N(CC(=O)N/N=C/c1ccc(N(C)C)cc1)C(=O)c1ccccc1
 : 1% | · | ? | 8 | · | -3.5 | -0.1 | -12
- N#CCCn1cc(C(=O)Nc2ccc([N+](=O)[O-])cc2)c(-c2cc3ccccc3o2)n1
 : 18% | -3 | -1.3 | ? | -2.5 | 3.1 | 2.0 | -8
- CCOCCOc1nc(C)cc(C)c1S(=O)(=O)c1ccccc1C
 : -3% | 0 | 3.2 | 3 | · | 2.1 | 0.6 | -4
- CC(C)C[C@H](NC(=O)N1CC(=O)Nc2ccccc21)C(=O)N[C@@H](C(=O)O)c1ccccc1
 : · | -4 | -1.0 | -2 | -0.2 | -6.7 | -0.2 | ·
- CC(=O)c1ccc(N2CCN(C(=O)c3ccco3)C(C)C2)c(F)c1 (stereo not given)
 : -2% | 9 | · | -1 | · | -3.1 | 0.2 | 0
- Cc1ccc(CN(CC(=O)NC2CCCC2)C(=O)c2csnn2)cc1
 : 5% | -1 | 4.7 | 0 | -16 | -0.8 | 0.1 | -7
- CC(C)(C)c1nc(CN2CCOCC2)ccc1O
 : 4% | -2 | 1.5 | -10 | · | -1.1 | -0.2 | -8
- COc1ccc(CC(=O)N2CCC(c3ccccc3)C2)cc1 (stereo not given)
 : 2% | 0 | 0.4 | 1 | -3.9 | -5.3 | -1.4 | 2

Looked up above:
T cruzi repl with CCCCOCCCNC(=O)N[C@@H](CCSC)C(=O)OC = -4
T cruzi repl with CC(C)(C)c1nc(CN2CCOCC2)ccc1O = -10
RanGTP-Impb inh with O=C(CSc1nc2ccccc2s1)N1c2ccccc2Sc2ccc(Cl)cc21 = 1.9
RanGTP-Impb inh with COC(=O)Cc1nnc(NC(=O)c2ccccc2)s1 = -1.6

The list continues.
The line under a structure holds: Vif TR-FRET | Beta apoptosis | RanGTP-Impb inh | T cruzi repl | MLL AF4-AF9 inh | LANA-H2B inh | A1 inh | Calb FLC
- O=C(c1ccc(CSc2nc3ccncc3[nH]2)cc1)N1CCN(c2cccc(Cl)c2)CC1
 : · | 66 | -4.4 | 55* | 14 | -0.6 | -1.4 | -9
- Cc1ccc(NC(=O)C(=O)NCc2ccncc2)cc1
 : 14% | -3 | -0.9 | 10 | -1.0 | 0.8 | 0.5 | 5
- CCOC(=O)c1c(C2COc3ccccc3O2)csc1N (stereo not given)
 : 2% | -8 | 0.9 | -10 | · | -0.4 | 1.8 | -16
- COc1ccc(OC)c(N(CC(=O)Nc2ccc3c(c2)OCO3)S(=O)(=O)c2ccccc2)c1
 : -4% | 13 | -0.9 | 4 | · | 1.8 | 1.8 | 26
- O=C(Nc1ccccc1)Nc1ccncc1
 : 4% | -4 | 2.1 | 37 | 1.3 | -0.4 | -4.8 | 0
- COC(=O)Cn1c(=NC(=O)C(C)(C)C)sc2c(C)cc(C)cc21
 : -6% | 12 | -3.5 | 20 | -1.8 | -1.7 | · | -3
- CCc1ccc2oc(=O)cc(CN3CCC(C)CC3)c2c1
 : -9% | 3 | 6.2 | 20 | 2.0 | 21* | -0.5 | -1
- C[C@H](NC(=O)Cc1cccc2ccccc12)C(=O)NCc1ccccc1
 : 0% | -4 | -2.3 | -13 | -0.1 | 16* | 0.2 | -2
- CCN(CC)CCn1c(=S)[nH]c2cc(C(=O)NCc3ccccc3Cl)ccc2c1=O
 : · | -2 | 1.5 | 10 | -2.9 | -0.8 | -0.6 | -5
- O=C(Nc1ccc(F)cc1)/C(Cl)=C/c1ccccc1
 : -6% | 1 | 3.1 | -21 | 2.6 | -4.7 | 0.7 | 1
- CCOC(=O)c1ccc(N=Cc2nc(-c3ccccc3)oc2OC(C)=O)cc1
 : -8% | -8 | ? | -12 | · | -1.9 | 0.2 | 34
- CN(C)/C=N/c1nc2nccc(-c3ccccc3)n2n1
 : 5% | -8 | 0.7 | 15 | 2.8 | 2.9 | 0.9 | 0
- C[C@H](CO)N1C[C@H](C)[C@@H](CN(C)S(=O)(=O)c2ccc(F)cc2)Oc2c(NC(=O)Cc3ccccc3)cccc2C1=O
 : 3% | -6 | · | · | 1.1 | -2.2 | -0.1 | ·
- Cc1cccc(C)c1NC(=O)c1cc(S(=O)(=O)N2CCOCC2)cn1C
 : · | -7 | -2.0 | -4 | 0.2 | -5.1 | · | 1
- CCOC(=O)N1CCN(C(=O)c2cnn3ccccc23)CC1
 : 3% | · | 1.7 | -10 | 1.7 | 0.9 | -0.6 | -1
- O=C(CSc1ccc(Cl)cc1Cl)N1CCC(c2nc3ccccc3s2)CC1
 : -8% | 4 | 1.6 | -1 | · | -2.4 | 0.3 | -6
- CC(=O)c1cnc2c(-c3ccc(Cl)cc3)cnn2c1C
 : -14% | 4 | · | · | · | -0.6 | -0.2 | ·
- FC(F)(F)c1cccc(OCCOCCn2cncn2)c1
 : 20% | -3 | 3.4 | 1 | · | -0.2 | -0.1 | 1
- Cn1c(=O)cc(OCC(=O)N2CCC(N3CCCCC3)CC2)c2ccccc21
 : 3% | -1 | 4.2 | 8 | -5.0 | -2.4 | 1.0 | 20
- COc1ccccc1-c1cc2nc(C)c(CCC(=O)NCc3ccco3)c(C)n2n1
 : 30% | · | -0.2 | 16 | 3.2 | 1.4 | -0.3 | 2
- O=C(c1ccc(=O)[nH]n1)N1CCN(S(=O)(=O)c2ccc(C(F)(F)F)cc2)CC1
 : 13% | -2 | · | · | -0.3 | 0.0 | 0.3 | ·
- CCN(CC)S(=O)(=O)c1ccc(N2CC(C(=O)NCc3cccnc3)CC2=O)cc1 (stereo not given)
 : · | 3 | -0.6 | -9 | -3.9 | 1.3 | 1.2 | -2
- CCN(Cc1ccccc1)C(=O)CSc1n[nH]c(N)n1
 : · | -4 | 2.0 | -9 | 0.2 | 1.9 | 0.7 | 1
- O=C(CSc1nnnn1CCCO)Nc1ccc2c(c1)OCO2
 : -2% | -1 | 2.1 | 0 | -1.1 | -8.3 | 0.0 | -4
- O=c1cc(-c2ccccc2)c2cc(Cl)c(O)c(CN3CCOCC3)c2o1
 : 21% | 6 | 3.6 | 0 | -7.1 | 2.4 | 0.1 | 0
- O=S1(=O)N=C(N2CCN(Cc3ccc4c(c3)OCO4)CC2)c2ccccc21
 : ? | -3 | -1.1 | -1 | -0.4 | 0.5 | 0.2 | -13
- Cc1ccc(S(=O)(=O)Nc2ccc(F)cc2)cc1C(=O)N1CCOCC1
 : -1% | -5 | · | · | -1.7 | 0.7 | -0.6 | ·
- CC(C)(C)NC(=S)NC(=O)C12CCC3CC(CC(C3)C1)C2
 : -1% | 5 | -2.9 | 47 | 3.0 | 2.9 | -0.3 | 9
- COC(=O)C1=C(C)C(c2ccc(OC)cc2)NC(=S)N1 (stereo not given)
 : -2% | -1 | -0.2 | 6 | · | 5.3 | 0.6 | 4
- O=C(NCC(=O)N1CCN(S(=O)(=O)c2ccccc2F)CC1)c1ccc2c(c1)OCO2
 : -6% | 0 | -3.7 | 0 | 5.0 | -9.0 | 1.6 | 3
- NC(=O)c1ccsc1NC(=O)CCS(=O)(=O)c1ccccc1
 : -4% | -12 | -1.4 | 19 | 0.0 | 3.8 | -1.9 | 68
- CCOC(=O)c1c(C)[nH]c(O)c1C=Nc1ccc(C(F)(F)F)cc1
 : 22% | -11 | -5.2 | 14 | · | -4.4 | 0.8 | -8
- CCOC(=O)C1CCCN(C(=O)C2CCN(S(=O)(=O)c3c(C)noc3/C=C/c3ccccc3F)CC2)C1 (stereo not given)
 : · | 6 | ? | 9 | 5.2 | 0.7 | -0.1 | 22
- Nc1cc(S(=O)(=O)N2CCCCC2)ccc1N1CCCCC1
 : 23% | 9 | · | · | 0.0 | 3.7 | 0.9 | ·
- Cc1ccc(N(CCC#N)C(=O)COC(=O)c2cc(C)oc2C)cc1
 : -1% | 0 | · | · | -3.4 | i | 0.7 | ·
- Cc1ccc(-c2nc(CN(C)C)cc(CN(C)C)c2O)cc1
 : -4% | -5 | · | · | · | -4.7 | 0.6 | ·
- COc1ccc(OC)c(NC(=O)NNC(=O)c2cc3occc3[nH]2)c1
 : · | -5 | -3.5 | 20 | 6.7 | 5.3 | -1.4 | -13
- CC(=O)c1ccccc1C(=O)N(C)C1CCCN(Cc2ccccc2F)C1 (stereo not given)
 : 8% | 0 | 6.8 | -4 | 1.7 | -59 | -0.3 | -5
- CCOC(=O)C1=C(C)NC(=O)NC1c1cc2c(cc1Br)OCO2 (stereo not given)
 : 8% | -3 | 6.0 | 0 | · | 0.4 | 0.2 | ·
- CN(C(=O)c1ccccc1C(=O)OCC(=O)Nc1cccc(Br)c1)c1ccccc1
 : -12% | -5 | · | · | 1.3 | -1.7 | -0.2 | ·
- COc1cccc(C2=NOC(C(=O)Nc3ccc4c(c3)OCO4)C2)c1 (stereo not given)
 : 8% | -1 | 1.2 | 9 | -1.4 | 2.8 | 1.0 | 9

Reformatted as labelled records: part of the list above.
CCOC(=O)c1c(C)[nH]c(O)c1C=Nc1ccc(C(F)(F)F)cc1
  Vif TR-FRET = 22%; Beta apoptosis = -11; RanGTP-Impb inh = -5.2; T cruzi repl = 14; MLL AF4-AF9 inh = ·; LANA-H2B inh = -4.4; A1 inh = 0.8; Calb FLC = -8
CCOC(=O)C1CCCN(C(=O)C2CCN(S(=O)(=O)c3c(C)noc3/C=C/c3ccccc3F)CC2)C1 (stereo not given)
  Vif TR-FRET = ·; Beta apoptosis = 6; RanGTP-Impb inh = ?; T cruzi repl = 9; MLL AF4-AF9 inh = 5.2; LANA-H2B inh = 0.7; A1 inh = -0.1; Calb FLC = 22
